Assay outcomes: PubChem BioAssay, National Center for Advancing Translational Sciences (NCATS)
Sfp PPTase inh: qHTS Assay for Inhibitors of Bacillus subtilis Sfp phosphopantetheinyl transferase (PPTase). Potency, µM, for the others: max response, negative = inhibition, actives largely listed as inhibitors. 4'-phosphopantetheinyl transferase ffp (Bacillus subtilis), Q9F4F7. 3.5% of 310,000 active. Biochemical Sfp PPTase activity, qHTS; active = well fitted inhibition curve with a large enough effect; inconclusive = small, poorly fitted or top-dose-only effect, or another doubt; inactive = no such curve, though single readings can be large or run the other way;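 also: the enzyme is Sfp with the accession as filed and its product quenches rhodamine fluorescence; potency is read from the fitted curve at half-maximal effect; 0% = enzyme reaction without inhibitor and -100% = no enzyme wells; top concentration of the series not given in the record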
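Compounds were incubated with enzyme (final 15 nM) for 15 min at room temperature before substrate addition started the reaction. Fluorescence at 525 nm excitation, 598 nm emission was recorded immediately and after 30 minutes.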
ClpP mod: qHTS Assay for Activators of ClpP; ATP-dependent Clp protease proteolytic subunit (Bacillus subtilis (strain 168)), P80244; purified B. subtilis ClpP, FRET peptide cleavage, 20 min; Potency, µM (titrated, usually from 57.5 µM), for the others: at the top dose activity change, negative = active; 1.9% of 340,000 active; AID 651965, 2013; active = well fitted falling curve with a large enough effect; inconclusive = small, poorly fitted or top-dose-only effect; inactive = no such curve, though single readings can be large or run the other way; also: potency is read from the fitted curve at half-maximal effect; the source files actives as falling curves though it sought activators and does not explain the sign; nearly all actives have a fitted effect of over 65% in size; many hits overshoot -100%
Target sequence (P80244 whole entry, looked up): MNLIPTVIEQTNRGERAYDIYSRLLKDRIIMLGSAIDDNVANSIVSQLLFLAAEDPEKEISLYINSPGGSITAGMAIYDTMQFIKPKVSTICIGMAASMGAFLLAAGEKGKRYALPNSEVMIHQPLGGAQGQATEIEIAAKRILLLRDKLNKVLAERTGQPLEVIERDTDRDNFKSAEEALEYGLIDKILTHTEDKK
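ClpP 10 microg/mL final, pH 8 Tris/KCl buffer with BSA, glycerol, Tween-20; compound pinned in; FRET-FV substrate; RT 20 min; Ex320/Em430; ΔFRET vs ADEP 5.8 microM, DMSO, no enzyme.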
TRPML1 inh: qHTS for Inhibitors of the Human Mucolipin Transient Receptor Potential 1 (TRPML1); TRPML1-inducible cells, Ca2+ dye fluorescence, FDSS; stronger effect = lower value; inhibition of EC80 agonist-evoked calcium signal; 0.02% of 390,000 active; Mucolipin-1 (Homo sapiens), Q9GZU1; activity change, negative = inhibition, % (no concentration beside the values); in the data active means activity change below about -50%; inconclusive means about -30% to -50%; inactive means above about -30%;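 also: stimulus is agonist 54-4 at its EC80 concentration; % is scaled to controls: 0 for no effect and ±100 for the full control effect; compound concentration not given in the record; the text of the record puts the active cut at -80%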
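Tet-induced TRPML1-DL cells loaded with Ca8 no-wash calcium dye were read kinetically on FDSS. Compound addition was followed by EC80 agonist 54-4 (4 uM final); inhibition was read over 110 s.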
gsp antag: qHTS for Antagonists of gsp, the Etiologic Mutation Responsible for Fibrous Dysplasia/McCune-Albright Syndrome: qHTS | gsp-mutant cells, cAMP HTRF, 30 min; control for the full effect not named in the record | Potency, µM (doses to about 76.9 µM), without a hit: top-dose activity change, negative = inhibition, usual class: inhibitors | 0.4% of 340,000 active; active = falling curve of any shape with a large fitted effect; inconclusive = falling curve, mostly with a smaller effect; inactive = flat or rising curve; cell line not stated here;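 also: intracellular cAMP measured with PDE inhibitor Ro 20-1724 present during compound exposure; potency is read from the fitted curve at half-maximal effect; % is scaled to controls: 0 for no effect and ±100 for the full control effect; nearly all actives have a fitted effect of over 65% in size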
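Cells, 2000/well, grown 16–24 h in DMEM 10% FBS with 0.5 mg/ml G418, then compounds plus […] (300 uM addition stock), 30 min at 37C. cAMP read by HTRF (cAMP-d2 and anti-cAMP antibody-K in lysis buffer) after 30 min RT.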
Menin-MLL FL inh: qHTS Assay for Inhibitors Targeting the Menin-MLL Interaction in MLL Related Leukemias: Competition With Fluorescein Labeled MLL-derived Peptide; 290,000 tested, under 10 active; Fluorescence polarization, fluorescein-MLL peptide displacement from menin; FP activity change, % at 61.4 µM; inconclusive = falling polarisation curve, or a change in total fluorescence; inactive = total fluorescence flat and polarisation flat or rising; no compound was filed as active; the % refers to the polarisation; negative = inhibition;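 also: % of control where 0% means no effect; inhibitors lower the polarisation; unlabelled MLL peptide was the positive control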
TRPV1 potentiator: HTS Assay for Compounds that Act as Potentiators of the Vanilloid Receptor 1; Transient receptor potential cation channel subfamily V member 1 (Homo sapiens), Q8NER1; TRPV1-expressing cells, Fluo-8 calcium influx, capsaicin EC20 potentiation; host cell line not named in the record; control for the full effect not named in the record; potentiation, % at 8.33 µM; 0.02% of 320,000 active; AID 540277, 2011; active means potentiation above 80%; inconclusive means 30% to 80%; inactive means below 30%; also: 0% is about no effect
Target sequence (Q8NER1 whole entry, looked up): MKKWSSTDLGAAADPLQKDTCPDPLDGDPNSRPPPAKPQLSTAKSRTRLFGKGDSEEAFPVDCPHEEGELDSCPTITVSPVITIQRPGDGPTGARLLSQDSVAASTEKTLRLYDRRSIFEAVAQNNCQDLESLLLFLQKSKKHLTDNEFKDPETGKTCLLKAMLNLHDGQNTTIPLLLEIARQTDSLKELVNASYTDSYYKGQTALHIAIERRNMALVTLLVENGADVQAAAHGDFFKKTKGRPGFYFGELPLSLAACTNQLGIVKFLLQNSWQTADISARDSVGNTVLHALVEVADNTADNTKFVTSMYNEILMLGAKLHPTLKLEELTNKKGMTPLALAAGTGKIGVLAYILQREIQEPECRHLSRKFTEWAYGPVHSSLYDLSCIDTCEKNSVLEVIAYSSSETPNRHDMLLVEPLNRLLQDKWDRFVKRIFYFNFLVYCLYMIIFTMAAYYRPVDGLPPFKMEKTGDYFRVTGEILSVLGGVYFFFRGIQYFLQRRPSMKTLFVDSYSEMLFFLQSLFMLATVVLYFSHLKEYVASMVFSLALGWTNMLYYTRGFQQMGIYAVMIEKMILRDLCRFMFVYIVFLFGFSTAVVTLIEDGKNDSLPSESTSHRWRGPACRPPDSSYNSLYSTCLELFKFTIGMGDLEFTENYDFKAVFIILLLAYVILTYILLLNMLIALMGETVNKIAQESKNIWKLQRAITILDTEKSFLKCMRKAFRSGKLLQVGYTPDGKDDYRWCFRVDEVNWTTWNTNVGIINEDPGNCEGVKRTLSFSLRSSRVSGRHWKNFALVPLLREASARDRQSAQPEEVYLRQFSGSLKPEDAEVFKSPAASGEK
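Cells expressing TRPV1 were dye-loaded with Fluo-8 and read kinetically: 10 s baseline, 3 min after compound (agonist portion), then 2 min after EC20 capsaicin (allosteric enhancer portion). Calcium-bound dye fluorescence at 480/520 nm.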
gsp ag: qHTS for Agonist of gsp, the Etiologic Mutation Responsible for Fibrous Dysplasia/McCune-Albright Syndrome: qHTS | 0.13% of 340,000 active | Potency, µM (doses to about 76.9 µM), inactives show at the highest dose activation (cAMP increase), usual class: activators | gsp mutant cells, cAMP HTRF, 30 min; control for the full effect not named in the record; active = well fitted activation curve with a large enough effect; inconclusive = small, poorly fitted or top-dose-only effect, or another doubt; inactive = no such curve, though single readings can be large or run the other way; cell line not stated here;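 also: phosphodiesterase inhibitor Ro 20-1724 added with compounds to block cAMP breakdown; potency is read from the fitted curve at half-maximal effect; nearly all actives have a fitted effect of over 60% in size; about a fifth of the inactives were tested at one dose only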
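Cells stably selected in G418 were plated at 2000/well, grown 16-24 hr, then given compounds in DMSO with the PDE inhibitor […] (300 uM solution added) for 30 min at 37C; cAMP was read by HTRF.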
Numbers without * were called inactive; [ ] = dose if it differs, or a comment. Compounds as they come. About 4.9% of those tested had a hit in this group.

Screening CCOC(=O)c1c(NC(=O)C(C)Sc2cn(C)c3ccccc23)sc2c1CCC2 (configuration not stated) returned Sfp PPTase inh inconclusive, ClpP mod -7.0%, TRPML1 inh -7.9, gsp antag -16.6%, Menin-MLL FL inh 1.2, TRPV1 potentiator -6.1 and gsp ag -99.3%[inhibitor].
Screening C=CCOC(=O)COc1ccc2c(C)c(CC)c(=O)oc2c1 returned Sfp PPTase inh 6.9%, ClpP mod inconclusive, TRPML1 inh 6.8, gsp antag -12.0%, Menin-MLL FL inh -0.6, TRPV1 potentiator -7.5 and gsp ag 35.7%.
Screening CC(C)(C)c1ccc(C(=O)NCc2nnc(SCC(=O)N3CCCc4ccccc43)n2-c2ccccc2)cc1 returned Sfp PPTase inh 9.1%, ClpP mod -1.8%, TRPML1 inh -5.3, gsp antag 7.8%, Menin-MLL FL inh -0.4, TRPV1 potentiator 4.0 and gsp ag -11.0%.
For CC(OC(=O)c1ccc(NS(=O)(=O)c2ccc3[nH]c(=O)[nH]c3c2)cc1)C(N)=O (configuration not stated) the results were Sfp PPTase inh 10.4%, TRPML1 inh 1.5, gsp antag 3.7%, Menin-MLL FL inh -3.5, TRPV1 potentiator -0.5 and gsp ag -12.0%.
`NC(=O)C1(N2CCCCC2)CCN(C(=S)Nc2ccc(S(N)(=O)=O)cc2)CC1` gave Sfp PPTase inh 3.98µM*, ClpP mod 1.2%, TRPML1 inh -2.6, gsp antag 8.7%, Menin-MLL FL inh 1.8, TRPV1 potentiator -1.4 and gsp ag -50.9%[inhibitor].
`CC(=O)c1c(C)nc(-c2cccc([N+](=O)[O-])c2)n1O` gave Sfp PPTase inh inconclusive, ClpP mod -2.0%, TRPML1 inh -8.3, gsp antag -3.2%, Menin-MLL FL inh -2.5, TRPV1 potentiator -2.2 and gsp ag 3.0%[15.4 µM].
Screening COC(=O)c1ccccc1NC(=O)C1CCCO1 (configuration not stated) returned Sfp PPTase inh 13.2%, ClpP mod inconclusive, TRPML1 inh -22.0, gsp antag 2.1%, Menin-MLL FL inh 6.1, TRPV1 potentiator 14.6 and gsp ag 4.2%.
For CCn1c(=O)c2ccccc2n(Cc2ccccc2C)c1=O the results were Sfp PPTase inh 3.4%, ClpP mod -26.3%, TRPML1 inh 0.8, gsp antag -15.5%, Menin-MLL FL inh -5.9, TRPV1 potentiator 14.5 and gsp ag 23.0%.
O=C(COC(=O)c1cccnc1Cl)c1ccc(OC(F)F)cc1 was read as Sfp PPTase inh 4.1%, TRPML1 inh -13.6, gsp antag 0.8%, Menin-MLL FL inh -0.5, TRPV1 potentiator -9.7 and gsp ag -6.3%[15.4 µM].
COc1ccc(C(=O)COC(=O)CCCN=C2NS(=O)(=O)c3ccccc32)c(OC)c1 was read as ClpP mod -19.7%, TRPML1 inh -8.0, gsp antag -6.8%, TRPV1 potentiator inconclusive and gsp ag 13.2%.
COC(=O)C(CC(C)C)N(Cc1cc(OC)cc(OC)c1)S(=O)(=O)c1ccccc1Br (configuration not stated) was read as ClpP mod -2.8%, TRPML1 inh -1.0 and gsp antag -9.9%.
`Cc1ccc(C(=O)N/N=C\c2ccccn2)cn1` gave Sfp PPTase inh 7.08µM*, ClpP mod -1.9%, TRPML1 inh 12.7, gsp antag 8.9%, Menin-MLL FL inh -1.2 and gsp ag -44.9%[15.4 µM].
Screening COc1cccc(C(=O)NCC(=O)N2CCC(C)CC2)c1 returned Sfp PPTase inh 3.2%, ClpP mod -0.7%, TRPML1 inh 2.1, gsp antag 8.3%, Menin-MLL FL inh 2.5, TRPV1 potentiator 4.5 and gsp ag -15.4%.
CS(=O)(=O)N1CCc2cc(C(=O)NC3CC3)ccc21 was read as Sfp PPTase inh 9.4%, TRPML1 inh -0.5, gsp antag -7.0%, Menin-MLL FL inh 3.9, TRPV1 potentiator 2.1 and gsp ag -51.3%[inhibitor].
Screening CCOc1cc(/C=C2/C(=N)N3C=CSC3=NC2=O)ccc1OCCCOc1ccccc1C returned Sfp PPTase inh 9.7%, ClpP mod 16.9%, TRPML1 inh 19.5, gsp antag 1.9%, Menin-MLL FL inh 11.6, TRPV1 potentiator -6.2 and gsp ag -21.1%.
Screening N#CCSc1nc2c(c(=O)n1Cc1ccccc1)C1(CCCC1)Cc1ccccc1-2 returned Sfp PPTase inh -2.6%, ClpP mod -23.2%, TRPML1 inh 10.6, gsp antag -17.4%, Menin-MLL FL inh 0.5, TRPV1 potentiator 4.6 and gsp ag -28.9%.
COC(=O)c1cc2occc2n1Cc1nc(-c2ccccc2Cl)oc1C was read as Sfp PPTase inh 2.3%, ClpP mod -3.5%, TRPML1 inh -7.0, gsp antag -0.1%, Menin-MLL FL inh 1.8, TRPV1 potentiator 12.0 and gsp ag -13.8%.
Cc1c(Nc2nc3ccccc3nc2NS(=O)(=O)c2ccccc2)c(=O)n(-c2ccccc2)n1C was read as Sfp PPTase inh -6.6%, ClpP mod -1.0%, TRPML1 inh 7.4, gsp antag 1.5%, Menin-MLL FL inh 0.9, TRPV1 potentiator -0.5 and gsp ag 25.9%.
For COc1ccc(-c2cc(C(=O)OC3CCOC3=O)c3ccccc3n2)cc1 (configuration not stated) the results were Sfp PPTase inh -1.4%, ClpP mod 25.1µM*, TRPML1 inh 7.4, gsp antag -22.5%, Menin-MLL FL inh 0.2, TRPV1 potentiator 1.4 and gsp ag inconclusive.
COc1ccc(CCNC(=O)[C@H](C)NC(=O)N2CCn3c2nc2ccccc23)cc1OC was read as Sfp PPTase inh 5.9%, ClpP mod 0.5%, TRPML1 inh 27.1, gsp antag 8.0%, TRPV1 potentiator -14.9 and gsp ag 42.3%.
C/C(=N\O)c1ccc2c3c([nH]c2c1)CCCC3 was read as Sfp PPTase inh -9.3%, ClpP mod 15.8µM*, TRPML1 inh 16.6, gsp antag -7.8%, Menin-MLL FL inh inconclusive, TRPV1 potentiator -4.1 and gsp ag inconclusive.
Screening C=CCN(c1ccccc1)S(=O)(=O)c1cccc(C(=O)Nc2ccc(N3CCOCC3)cc2)c1 returned ClpP mod 0.8%, TRPML1 inh -7.6, gsp antag -8.4%, TRPV1 potentiator 12.6 and gsp ag -10.7%[15.4 µM].
CCN(CC)CCNC(=O)C(=O)Nc1cc2c3c(c1)CC(=O)N3CCC2 was read as Sfp PPTase inh 7.3%, ClpP mod 0.3%, TRPML1 inh -6.4, gsp antag 8.2%, Menin-MLL FL inh 10.7, TRPV1 potentiator 8.2 and gsp ag inconclusive.
Screening Cc1ccc(Cl)cc1N1CCN(Cc2cc3c(cc2O)CCC3)CC1 returned Sfp PPTase inh -2.2%, ClpP mod -0.1%, TRPML1 inh 18.3, gsp antag -2.7%, Menin-MLL FL inh -1.1, TRPV1 potentiator 6.8 and gsp ag -22.9%.
`CCNC(=S)NNC(=O)CCn1cc(C)cn1` gave Sfp PPTase inh -9.5%, ClpP mod 1.7%, TRPML1 inh -18.8, gsp antag 8.0%, Menin-MLL FL inh 1.4, TRPV1 potentiator 3.1 and gsp ag inconclusive.
`COc1cccc(C(=O)Nc2cc3c4c(c2)CC(=O)N4CCC3)c1` gave ClpP mod 1.0%, TRPML1 inh -7.6, gsp antag -13.0%, TRPV1 potentiator -8.2 and gsp ag 3.1%.
Screening NC(=O)C1(N2CCCCC2)CCN(C(=O)NC23CC4CC(CC(C4)C2)C3)CC1 returned Sfp PPTase inh 14.5%, ClpP mod -4.2%, TRPML1 inh -4.1, gsp antag 7.3%, Menin-MLL FL inh -0.8, TRPV1 potentiator -7.8 and gsp ag -43.4%[inhibitor].
Nc1nnn(CC(=O)N/N=C/c2cccc3ccccc23)n1 was read as Sfp PPTase inh -1.8%, ClpP mod -12.6%, TRPML1 inh 4.5, gsp antag 9.6%, Menin-MLL FL inh 2.9, TRPV1 potentiator 19.2 and gsp ag -48.8%[inhibitor].
`NS(=O)(=O)c1ccc(NC(=O)CN2CCCN(S(=O)(=O)c3ccc(F)cc3)CC2)cc1` gave Sfp PPTase inh -1.7%, TRPML1 inh -11.8, gsp antag -6.7%, Menin-MLL FL inh 2.4, TRPV1 potentiator -3.2 and gsp ag -3.1%[15.4 µM].
`O=C(CSCc1ccc(Cl)cc1Cl)Nc1ccccc1C(=O)Nc1ccc(C(=O)O)cc1` gave Sfp PPTase inh 13.1%, TRPML1 inh -9.3, gsp antag -21.9%, Menin-MLL FL inh -2.2, TRPV1 potentiator 9.6 and gsp ag -15.4%.
`O=C(C1CCC(=O)N(C2CC2)C1)N1CCN(c2ccc(Cl)cc2)CC1` (configuration not stated) gave Sfp PPTase inh 16.3%, ClpP mod -2.6%, TRPML1 inh -3.5, gsp antag 4.7%, TRPV1 potentiator -2.9 and gsp ag 6.1%.
For CSCCC(NC(=O)c1ccccc1)C(=O)NC1CC1 (configuration not stated) the results were Sfp PPTase inh 12.0%, ClpP mod 1.3%, TRPML1 inh 33.2, gsp antag 8.1%, Menin-MLL FL inh 5.4, TRPV1 potentiator 15.7 and gsp ag 8.1%.
Screening N#Cc1c(-c2cccc(Br)c2)cc(-c2ccco2)[nH]c1=O returned Sfp PPTase inh inconclusive, TRPML1 inh 4.3, gsp antag -0.3%, Menin-MLL FL inh inconclusive, TRPV1 potentiator 7.2 and gsp ag -2.4%[15.4 µM].
Screening COc1ccc(-c2cc(C(=O)NCCCn3ccnc3)c3ccccc3n2)c(OC)c1 returned Sfp PPTase inh 10.1%, ClpP mod -0.4%, TRPML1 inh 19.1, gsp antag -1.8%, Menin-MLL FL inh 1.0, TRPV1 potentiator 4.8 and gsp ag -3.2%[15.4 µM].
CC(C)c1onc(C(=O)NCc2ccc(Cl)cc2)c1[N+](=O)[O-] was read as Sfp PPTase inh 7.0%, ClpP mod inconclusive, TRPML1 inh 32.3, gsp antag -6.2%, Menin-MLL FL inh 5.7, TRPV1 potentiator -13.3 and gsp ag 1.2%.
`COc1ccc(OC)c(NC(=S)N2CCc3ccccc3C2)c1` gave Sfp PPTase inh 0.2%, ClpP mod -3.7%, TRPML1 inh 0.8, gsp antag -8.3%, Menin-MLL FL inh -3.4, TRPV1 potentiator 10.8 and gsp ag -28.4%.
